# Screening data deposited in PubChem BioAssay by National Center for Advancing Translational Sciences (NCATS).
# GLA inh pH 4.5: alpha-galactosidase A (human) inhibition, pH 4.5; purified enzyme, 4-MU-alpha-Gal fluorescence, pH 4.5; P06280; activity change, negative = inhibition, % at 105 µM; 230,000 tested, under 10 active; inconclusive = small, poorly fitted or top-dose-only inhibition, or a rising curve; inactive = flat fitted curve, though single readings scatter; no compound was filed as active;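 further: 0% = full activity with enzyme and -100% = basal without enzyme; dose as in the result columns while the protocol names 77 µM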
# Target sequence (P06280 whole entry, looked up): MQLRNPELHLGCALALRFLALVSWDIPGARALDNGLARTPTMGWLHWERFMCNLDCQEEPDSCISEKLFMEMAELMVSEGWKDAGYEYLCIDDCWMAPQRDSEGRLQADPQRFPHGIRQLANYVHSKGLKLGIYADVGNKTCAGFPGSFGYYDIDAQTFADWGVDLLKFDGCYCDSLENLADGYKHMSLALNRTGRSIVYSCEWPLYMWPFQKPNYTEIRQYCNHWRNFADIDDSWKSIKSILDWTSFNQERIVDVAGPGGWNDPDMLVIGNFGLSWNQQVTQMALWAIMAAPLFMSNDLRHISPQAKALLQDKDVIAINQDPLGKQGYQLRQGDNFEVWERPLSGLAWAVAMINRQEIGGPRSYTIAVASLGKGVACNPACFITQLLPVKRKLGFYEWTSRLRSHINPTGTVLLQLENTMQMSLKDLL
# Rango-impB inh: inhibitors of Rango-importin beta complex formation; Rango CFP/YFP FRET sensor + importin beta, 45 min; AID 540263; Potency, µM (series often up to 92.2 µM), for inactives: at the top dose inhibition of complex formation; actives 0.031% (n = 340,000); active = rising FRET ratio curve, often small or poorly fitted; inconclusive = mostly compound fluorescence or quenching in the first reads; inactive = flat curves in all reads;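 further: potency means the concentration at half of the fitted maximal effect; 0% = DMSO wells and 100% = buffer wells lacking importin beta; nearly all actives have a fitted effect of over 15% in size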
#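 Inhibition scored from the CFP 486 nm/YFP 530 nm FRET ratio 45 min after adding 0.125 microM importin beta to 50 nM Rango biosensor preincubated 5 min with compound (room temperature, PBS with DTT, Tween-20, BSA). No-importin wells as positive control.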
# Rango dissoc inh: prevents RanGTP from dissociating the Rango-importin beta complex; Potency, µM (top dose mostly 46.1 µM), inactives show at the highest dose activity change, negative = inhibition; O95149+P62826; AID 540253; actives 0.071% (n = 340,000); Biochemical FRET Rango-importin beta, RanGTP-induced dissociation; active means falling FRET ratio curve, often poorly fitted, with flat reads before Ran was added; inconclusive means other falling curves, or compound fluorescence or quenching; inactive means flat or rising ratio curve;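 further: potency means the concentration at half of the fitted maximal effect; % of control where 0% means no effect; nearly all actives have a fitted effect of over 45% in size; -100% = wells without RanGTP and RCC1; the record marks most hits as doubtful in a second field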
#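 Compounds preincubate 5 min with complex of recombinant Rango and importin beta in PBS with 1 mM DTT. Ran (0.6 uM) loaded with 2 mM GTP plus 0.2 uM RCC1 starts dissociation; FRET is recorded 45 min later.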
# miR-21 FLuc: raises the signal of a miR-21 reporter; HeLa miR-21 FLuc reporter, luciferase, 48 h; Potency, µM (highest dose often 38.3 µM), without a hit: at the top dose reporter change, positive = more light; 340,000 tested, under 10 active; active = well fitted rising curve with a large enough effect; inconclusive = small, poorly fitted or top-dose-only effect; inactive = no such curve, though single readings can be large or run the other way;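 further: % of control where 0% means no effect; miR-21 action dims this reporter so a rising signal means less miR-21 action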
#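 Using DMEM plus 10% FBS, HeLa miR-21-FLuc cells are incubated with test compounds (final up to about 40uM) for 48 hours; firefly luciferase signal is then imaged following reagent-mediated lysis.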
# The depositor's hits bear a star; u = inconclusive; x = no result given; [ ] = another dose, or the depositor's remark. This is a subset; count on the stated rates, not on these rows.
Structure | GLA inh pH 4.5 | Rango-impB inh | Rango dissoc inh | miR-21 FLuc
COC(=O)C1=C(C)N(C)C(=O)NC1c1cc(Cl)cc(Cl)c1OC (stereo not drawn) | -5 | 0.2% | 0% | 0%
O=C(NC1CCCCC1)C(c1ccco1)N(C(=O)c1csnn1)c1cccc(F)c1 (stereo not drawn) | x | -1.9% | 18% | -2%
COC(=O)C1=C(CN2CCc3ccccc32)NC(=O)NC1c1cc(C)ccc1C (stereo not drawn) | -20 | 0.6% | -1% | 16%
c1coc(-c2cc(C3CCNCC3)[nH]n2)c1 | 7 | 1.4% | -11% | -2%
COc1cc(CNCCCCO)ccc1OCc1ccccc1F | -7 | -1.0% | -10% | -36%
CC(NC(=O)c1cccs1)C(c1cccs1)N1CCN(Cc2ccccc2)CC1 (stereo not drawn) | -1 | 0.0% | 11% | 8%
COc1ccc(N2CCN(C(=O)CCc3ccc(S(=O)(=O)NCC(C)C)cc3)CC2)cc1 | 3 | -1.5% | -1% | 17%
N#CCC(=O)N/N=C/c1ccccc1Cl | 6 | 0.2% | 1% | 0%
CC(C)c1nnc(SCC(=O)N2CCc3ccccc32)n1N | 14 | 1.7% | -1% | 2%
Cc1ccc(NC(=O)CCSc2nnc3ccccn23)cc1 | 0 | 3.5% | 8% | -6%
CC(=O)Nc1nc2ccccc2[nH]1 | -1 | 0.8% | 0% | -2%
COc1ccc(-c2oc3ccc(N4CCOCC4)cc3c2C#CC2(O)CCCCC2)cc1 | x | 7.9% | -18% | x

# Overlap with the part before: 4 compounds, then new ones.
Structure | GLA inh pH 4.5 | Rango-impB inh | Rango dissoc inh | miR-21 FLuc
CC(C)c1nnc(SCC(=O)N2CCc3ccccc32)n1N | 14 | 1.7% | -1% | 2%
Cc1ccc(NC(=O)CCSc2nnc3ccccn23)cc1 | 0 | 3.5% | 8% | -6%
CC(=O)Nc1nc2ccccc2[nH]1 | -1 | 0.8% | 0% | -2%
COc1ccc(-c2oc3ccc(N4CCOCC4)cc3c2C#CC2(O)CCCCC2)cc1 | x | 7.9% | -18% | x
Cc1cc(C(=O)NP(=O)(N2CCOCC2)N2CCOCC2)c(C)n1-c1ccc(Br)cc1 | 0 | -4.2% | 8% | -12%
COc1cc2c(cc1OC)CN(C(=S)Nc1ccccc1Cl)CC2 | -13 | -1.3% | 18% | -5%
CCCCOc1ccc(C(=O)Oc2cc(C)[nH]c(=O)c2[N+](=O)[O-])cc1 | x | 2.1% | 20% | -1%
Cc1cccc(/N=C/c2ccccn2)n1 | x | 1.7% | 11% | x
O=C(N/C(=C/c1cccc([N+](=O)[O-])c1)C(=O)N1CCCCCC1)c1cccs1 | -14 | -1.2% | -9% | 0%
CC(C)OCCCNC(=O)Nc1cccc2ccccc12 | -7 | 4.4% | 2% | 2%
COc1ccccc1Nc1ncnc2c1cnn2-c1cccc(C)c1 | -4 | -6.0% | -13% | -37%
CCOc1ccc(NC(=O)CC2C(=O)N(c3ccc(OC)c(Cl)c3)C(=S)N2C2CC2)cc1 (stereo not drawn) | x | 4.5% | 8% | 0%
O=C(CCN1CCN(Cc2ccccc2)CC1)Nc1ccccc1Cl | -14 | -2.5% | 2% | -7%
COc1ccc(CNC(=O)C2CCCN(S(=O)(=O)c3ccc(F)cc3)C2)cc1 (stereo not drawn) | x | -2.0% | 5% | -1%
O=[n+]1c2c(n([O-])c3cc(Cl)ccc31)CCCC2 | -18 | 0.7% | u | -1%
CCC1C(=NO)C(CC)C(c2ccccc2)NC1c1ccccc1 (stereo not drawn) | -21 | 0.1% | -14% | 23%

# Single records, as listed above.
# N#CCC(=O)N/N=C/c1ccccc1Cl in the list: GLA inh pH 4.5 = 6; Rango-impB inh = 0.2%; Rango dissoc inh = 1%; miR-21 FLuc = 0%
# Cc1cc(C(=O)NP(=O)(N2CCOCC2)N2CCOCC2)c(C)n1-c1ccc(Br)cc1 in the list: GLA inh pH 4.5 = 0; Rango-impB inh = -4.2%; Rango dissoc inh = 8%; miR-21 FLuc = -12%

# Later entries
Structure | GLA inh pH 4.5 | Rango-impB inh | Rango dissoc inh | miR-21 FLuc
COC(=O)c1cc(CNC(=O)c2cccc(Cl)c2)ccc1OC | -9 | -1.4% | 0% | -5%
COc1cc2c(cc1OC)CC(=O)NC=C2 | 2 | -7.7% | -10% | 2%
Cc1cccc(NC(=O)CN2NS(=O)(=O)c3ccccc3C2=O)c1 | -4 | -0.3% | -3% | 0%
O=C(CCSCc1ccccc1F)NCc1ccc(F)cc1 | x | -1.9% | 7% | -3%
Cn1c(=NC(=O)c2cccc([N+](=O)[O-])c2)sc2ccccc21 | -2 | -0.8% | 7% | -51%
CCCN1C(=O)/C(=C/c2ccc(C)s2)NC1=S | -6 | u | u | -18%
CC(C)c1ccc(-c2nc(N3CCOCC3)[nH]c(=O)c2C#N)cc1 | -2 | -3.4% | 2% | -7%
CN(C)Cc1c(O)c(Cl)cc2c3c(c(=O)oc12)CCCC3 | u | u | u | 0%
CC(C)N(Cc1nc(-c2ccccc2)no1)C(=O)COc1ccccc1 | -7 | -0.3% | -18% | -11%
CN(C)S(=O)(=O)c1ccc(N2CCCC2)c(C(=O)NNC(=O)c2ccc(F)cc2)c1 | x | -3.2% | u | x
CN(Cc1ccc(OCC(O)CN2CCCCC2)cc1)Cc1ccnc2ccccc12 (stereo not drawn) | -3 | 0.7% | 3% | 17%
Clc1ccc(OCCN2CCCCC2)c(Cl)c1 | -9 | -0.7% | -14% | -8%

# Just Rango dissoc inh, Rango-impB inh and GLA inh pH 4.5, for four of the compounds above:
Compound,Rango dissoc inh,Rango-impB inh,GLA inh pH 4.5
CC(C)c1ccc(-c2nc(N3CCOCC3)[nH]c(=O)c2C#N)cc1,2%,-3.4%,-2
CN(C)Cc1c(O)c(Cl)cc2c3c(c(=O)oc12)CCCC3,u,u,u
CC(C)N(Cc1nc(-c2ccccc2)no1)C(=O)COc1ccccc1,-18%,-0.3%,-7
CN(C)S(=O)(=O)c1ccc(N2CCCC2)c(C(=O)NNC(=O)c2ccc(F)cc2)c1,u,-3.2%,x

# The list continues.
Structure | GLA inh pH 4.5 | Rango-impB inh | Rango dissoc inh | miR-21 FLuc
Cc1ccc(C(=O)OCC(=O)NCC2COc3ccccc3O2)cc1 (stereo not drawn) | x | 0.3% | 9% | x
COc1ccc(N(CC(=O)N2CCCCC2)S(=O)(=O)c2ccccc2)c(OC)c1 | 5 | 0.3% | 17% | -1%
Cc1ccc(-n2nnnc2SCC(=O)NNC(=O)c2ccc([N+](=O)[O-])cc2)cc1 | -7 | 0.9% | 22% | 1%
O=S(=O)(c1ccc(Cl)cc1)N1CCC2(CC1)OCCO2 | x | 0.1% | -1% | -4%
O=C(NC(Cc1ccccc1)C(=O)NC1CC1)OCc1ccccc1 (stereo not drawn) | 5 | 2.8% | 24% | -2%
COCCNc1oc(-c2ccco2)nc1S(=O)(=O)c1ccccc1 | x | -1.3% | 0% | 1%
Cc1ccc(S(=O)(=O)Nc2cccc(Cl)c2)cc1NC(=O)C1CC1 | x | -4.2% | 5% | x
Cn1cccc1Cc1nnc(SCC(=O)Nc2ccc3c(c2)OCO3)n1-c1ccc(F)cc1 | -7 | 0.0% | 8% | -21%
COc1ccc(N(C(=O)Cn2nnc(-c3ccc(C)o3)n2)C(C(=O)NC2CCCC2)c2ccncc2)cc1 (stereo not drawn) | x | -3.4% | 15% | 0%
Cc1ccc(NC(=O)COC(=O)c2ccccc2Nc2ccccc2)cc1 | 4 | u | -21% | -1%
O=C(CN(CC1CCCO1)C(=O)CNS(=O)(=O)c1ccc(Cl)cc1)NCc1ccccc1 (stereo not drawn) | x | -3.0% | 2% | 5%
COC(=O)C1=C(N)Oc2cc(C)[nH]c(=O)c2C1c1ccncc1 (stereo not drawn) | 5 | -0.6% | -7% | 0%
O=C(C[C@H]1C/C=C\CC[C@H](Cc2ccc(F)cc2)C(=O)OCCNC1=O)NCCO | x | -0.5% | 9% | x
COc1cccc(-n2c(=O)c3ccccc3n3c(=S)[nH]nc23)c1 | x | -1.5% | -18% | -4%
CCOC(=O)c1ccccc1NC(=O)CC(C)CC(=O)O (stereo not drawn) | -3 | -0.9% | 11% | -6%
Cc1cc(C)c2nc(N3CCC(C(=O)NCc4ccccn4)CC3)sc2c1 | -6 | 3.6% | 21% | -13%
CCN1C(=O)C(O)(CC(=O)c2cccc(-n3cccc3)c2)c2ccccc21 (stereo not drawn) | 2 | 2.5% | 35% | 1%
CCS(=O)(=O)Nc1c(C(=O)O)[nH]c2ccccc12 | 0 | -0.1% | 1% | -16%
CC(C)n1cnc2c(NCc3ccccc3)cc(OCC3CCN(C)CC3)cc21 | x | u | u | x
O=C(OCC#CCSc1nnc(-c2ccc(Br)cc2)o1)c1ccco1 | -5 | 2.8% | -4% | -17%
O=C(NC1CC(=O)N(c2ccc3c(c2)OCCO3)C1)N1CCCCC1 (stereo not drawn) | x | -1.5% | 5% | x
CC(C)c1cccc(C(C)C)c1NC(=O)CN(C)C1CCS(=O)(=O)C1 (stereo not drawn) | x | 2.1% | 0% | x
O=C(CCNC(=O)C1CCN(S(=O)(=O)c2ccccc2)CC1)NCCc1ccc(Cl)cc1 | x | 2.3% | 22% | 13%
CN(C)S(=O)(=O)c1ccc(C(=O)OCC2CC2(Cl)Cl)cc1 (stereo not drawn) | x | 2.5% | 17% | 0%
O=C(COC(=O)c1cc(=O)[nH]c(=O)[nH]1)Nc1cccc(S(=O)(=O)N2CCCCC2)c1 | -7 | 2.6% | -8% | 6%
COc1ccc(Cl)cc1CN1CCOCC1 | -1 | -0.4% | 6% | -2%
Oc1ccc(Cl)cc1CNCc1ccc(F)cc1 | x | 3.6% | 3% | x
CC(C)(C)CC(=O)Nc1ccc(S(=O)(=O)N2CCCC2)cc1 | 1 | -2.4% | 7% | -1%
COc1cccc(C(=O)Nc2ccccc2F)c1 | -4 | -0.1% | 6% | -47%
COCCNC(=O)/C(C#N)=C/c1cn(CC(=O)NCc2ccco2)c2ccccc12 | -4 | u | u | -16%
Cc1ccc(S(=O)(=O)Cn2nnnc2C(c2ccc(F)cc2)N2CCCCC2)cc1 (stereo not drawn) | 0 | -1.0% | 14% | -8%
O=C(NCC1(O)CCCCC1)C1CCC(=O)N(CCc2ccccc2)C1 (stereo not drawn) | x | -0.4% | -4% | -1%
Oc1ccc(C(=S)N2CCCCCC2)cc1 | 3 | 7.1% | 19% | -7%
CCOC(=O)c1csc(N/N=C2\CCCc3ccccc32)n1 | x | -1.2% | 1% | -10%
COc1ccccc1/C=N/NC(=O)c1cccc(NC(=O)c2ccccc2C)c1 | x | 0.4% | 0% | -3%
CCOc1ccc(CCNC(=O)c2c(C)nn(-c3ccccc3)c2Cl)cc1OCC | x | -4.4% | 11% | 0%
CCc1ccc2nc(NC(=O)c3ccc4c(=O)[nH]c(CN5CCOCC5)nc4c3)sc2c1 | 1 | 0.8% | -4% | -21%
CCOC(=O)CN1C(=O)S/C(=C/c2ccc(OCc3ccc(C(=O)O)cc3)cc2)C1=O | x | -2.6% | -15% | 0%
COc1ccc(-c2nc(CCNC(=O)c3ccco3)cs2)cc1OC | 2 | 4.0% | -11% | -15%
C=CCN(CC=C)CCOc1ccccc1F | -2 | 1.5% | -3% | -2%
Cc1ccc(CNCc2cccnc2)cc1 | 1 | 2.9% | 11% | -1%
COc1ccc(CNC(=O)C[C@H]2C[C@H](C(=O)N(C(C)C)C(C)C)[C@@]3(C)c4[nH]c5cc(-c6ccco6)ccc5c4CCN3C2=O)cc1OC | x | 1.4% | 27% | x
Cc1nc(NC(=S)NC(=O)c2ccccc2)sc1C | -1 | 0.2% | -3% | -50%
CN1C(C(=O)NCC2CC2)CC2Cn3c(nc4cc(Cl)c(Cl)cc43)C21 (stereo not drawn) | 3 | -0.4% | -14% | 1%
CC(NC(=O)COC(=O)/C=C/c1ccc2c(c1)OCO2)c1ccccc1 (stereo not drawn) | x | -0.2% | 4% | x
CC(C(=O)NCCC1=CCCCC1)c1ccc([N+](=O)[O-])cc1 (stereo not drawn) | -10 | 1.1% | -28% | -5%
Cc1c(Nc2ccc3nonc3c2[N+](=O)[O-])c(=O)n(-c2ccccc2)n1C | -5 | 1.7% | -1% | 0%
CCN(CC)CC#CCOC(c1ccccc1)c1ccccc1 | -25[21.1 µM] | 1.0% | 2% | 1%
